Vif TR-FRET: HIV-1 Vif–A3G interaction blockers – biochemical, TR-FRET, GST-Vif 1-94, biotin-A3G peptide, dose response retest, primary screen (AID 1117319). TR-FRET GST-Vif / biotin-A3G peptide binding; higher % means a stronger effect; test concentration not given here; strong numbers were not always called active. inhibition, %; hits with a dose series show IC50 in µM. hit rate 0.57% among 260,000;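 active = above the screen mean plus three standard deviations and confirmed in dose response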;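 note: Vif residues 1-94 fused to GST binding biotinylated APOBEC3G peptide 110-148; 0% = full assay without inhibitor and 100% = GST in place of GST-Vif; retest series ran down from 100 µM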
MLL AF4-AF9 inh: MLL-AF4/AF9 protein interaction inhibition; AlphaScreen, biotin-AF4 peptide binding to FLAG-AF9; P42568; hit rate 0.47% among 350,000; AID 651704; inhibition, % at 10 µM;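 active = every replicate reaching a set inhibition limit, whatever the replicate mean, cut at about 25% in these data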;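 note: 0% = plate neutral control median and 100% = total signal loss; the record names both 10 and 1 µM as test concentration; the first replicate is given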
Target sequence (P42568 whole entry, looked up): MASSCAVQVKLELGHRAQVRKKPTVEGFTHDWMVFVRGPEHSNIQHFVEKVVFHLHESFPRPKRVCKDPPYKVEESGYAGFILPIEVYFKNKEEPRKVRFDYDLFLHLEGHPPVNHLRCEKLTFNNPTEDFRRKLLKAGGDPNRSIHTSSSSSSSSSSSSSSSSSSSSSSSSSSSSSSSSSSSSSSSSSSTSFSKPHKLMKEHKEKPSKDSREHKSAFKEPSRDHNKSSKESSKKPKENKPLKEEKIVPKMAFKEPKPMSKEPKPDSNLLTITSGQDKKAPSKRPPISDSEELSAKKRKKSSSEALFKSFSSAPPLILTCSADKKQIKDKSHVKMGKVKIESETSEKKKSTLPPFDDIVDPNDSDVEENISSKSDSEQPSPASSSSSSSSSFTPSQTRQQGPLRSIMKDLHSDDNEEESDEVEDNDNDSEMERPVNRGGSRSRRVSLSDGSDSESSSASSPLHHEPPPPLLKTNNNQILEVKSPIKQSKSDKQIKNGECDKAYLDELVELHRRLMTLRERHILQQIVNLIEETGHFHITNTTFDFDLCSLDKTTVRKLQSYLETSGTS
rRNA inh HTS: inhibitors of bacterial rRNA selective over humanized ribosomes. AID 720706. hit rate 1.6% among 350,000. E. coli WT GFP vs humanized-ribosome RFP mutants, fluorescence, 24 h; stronger effect = lower value; DMSO median 0, no signal -100. GFP signal change (wild-type ribosome), % (concentration not given with the values);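 active = significant combined selectivity score with lowered wild-type GFP, culture density cut under 30%, mutant RFP and density less affected; inactive = any of these conditions unmet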; note: one replicate is shown; some compounds called inactive have numbers as strong as hits
rRNA inh HTS OD600: also measured in rRNA inh HTS; calls as there; OD600 change, %; measured here: OD600 growth;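 optical density of the mix in the first replicate; 0 = DMSO median and -100 = no signal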
rRNA inh HTS RFP: also measured in rRNA inh HTS; calls as there; RFP signal change, %; measured here: RFP humanized mutant strains;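 first replicate; 0 = DMSO median and -100 = no signal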
Starred values were filed as active, the others as inactive; & = joins results of further samples. A portion of the library. The share of hits here may be higher or lower than overall.

The first three records, to show the layout:
cpd	SMILES	Vif TR-FRET	MLL AF4-AF9 inh	rRNA inh HTS	rRNA inh HTS OD600	rRNA inh HTS RFP
1	Cc1cccc(NS(=O)(=O)c2ccc(C)c(C(=O)NCCCN3CCOCC3)c2)c1	0%	0.8	0	0	-5.1
2	Cc1cc(NC(=O)CN2C(=O)/C(=C/c3ccc(C(C)C)cc3)SC2=S)no1	-4%	-6.1	-1	0	-2.0
3	O=[N+]([O-])c1cc(S(=O)(=O)Nc2ccccc2)ccc1Nc1ccccc1	11%	0.9	-2	8	-2.8

All compounds of this part, from the start:
cpd	SMILES	Vif TR-FRET	MLL AF4-AF9 inh	rRNA inh HTS	rRNA inh HTS OD600	rRNA inh HTS RFP
1	Cc1cccc(NS(=O)(=O)c2ccc(C)c(C(=O)NCCCN3CCOCC3)c2)c1	0%	0.8	0	0	-5.1
2	Cc1cc(NC(=O)CN2C(=O)/C(=C/c3ccc(C(C)C)cc3)SC2=S)no1	-4%	-6.1	-1	0	-2.0
3	O=[N+]([O-])c1cc(S(=O)(=O)Nc2ccccc2)ccc1Nc1ccccc1	11%	0.9	-2	8	-2.8
4	C[C@@H]1CN([C@H](C)CO)C(=O)CCCn2nncc2CO[C@@H]1CN(C)C(=O)NC1CCCCC1	-9%	-3.0&-2.0&0.3	3&1	14&3	-2.6&-2.3
5	O=C(CSc1ccc(Cl)cc1)NNC(=O)c1ccncc1	-1%	-2.8	3	12	2.7
6	O[C@H]1CN(CC2CCCCC2)[C@@H](c2ccc(Cl)cc2)C[C@@H]1n1cc(-c2ccc(F)cc2)nn1	-8%	-0.5	6	14	0.6
7	COc1ccc(CN2CCN(Cc3c[nH]c4ccccc34)CC2)c(OC)c1	0%	16	3	-2	0.7
8	CCOc1ccc(NS(=O)(=O)c2ccc(C(=O)NCC3CCCO3)cc2)cc1 (configuration not stated)	-4%	-0.5	-11	-4	2.7

More entries follow.
cpd	SMILES	Vif TR-FRET	MLL AF4-AF9 inh	rRNA inh HTS	rRNA inh HTS OD600	rRNA inh HTS RFP
9	Cc1[nH]c(=S)[nH]c(=O)c1Cc1c(O)ccc2ccccc12	6%	1.9	1	-8	10
10	CC1(c2ccccc2)NC(=O)N(CC(=O)NNC(=O)c2ccccc2F)C1=O (configuration not stated)	-7%	-10	4	4	-2.2
11	CC(=O)c1c(C)[nH]c(C(=O)OCC(=O)Nc2c(C)n(C)n(-c3ccccc3)c2=O)c1C	5%	-11	1	3	0.3
12	Cn1c(=S)sc2ccc3ccccc3c21	-20%	-3.2	-3	-6	4.0
13	c1ccc(-c2csc(CN3CCCCC3)n2)cc1	-2%	-0.5	4	0	3.3
14	Cc1cccc(N=Cc2ccccc2O)c1C	1%	-1.7	7	22	-1.9
15	CCN(CC)CCCC(C)n1c(C)cc(C(=O)NS(=O)(=O)c2ccc(C)cc2)c1C (configuration not stated)	-4%	7.8	12	12	-1.7
16	CCN=C1NN=C(c2cc(C)n(CCc3ccccc3)c2C)CS1	30%	2.5	12	11	2.6

Copied from the list:
Reading of no. 11 in MLL AF4-AF9 inh: -11
Reading of no. 13 in rRNA inh HTS: 4
Reading of no. 10 in MLL AF4-AF9 inh: -10
Reading of no. 6 in rRNA inh HTS OD600: 14
Reading of no. 8 in rRNA inh HTS: -11
Reading of no. 12 in rRNA inh HTS: -3

Next section.
cpd	SMILES	Vif TR-FRET	MLL AF4-AF9 inh	rRNA inh HTS	rRNA inh HTS OD600	rRNA inh HTS RFP
17	CCN1CCN(S(=O)(=O)c2ccc(Cl)c(C(=O)N(C)Cc3ccco3)c2)CC1	4%	8.5	0	9	-2.1
18	CCC(CC)NC(=O)CN1CCN(S(=O)(=O)c2cccs2)CC1	0%	-1.3	8	11	-0.3
19	COc1ccc(-c2ccc(CCC(=O)O)n2-c2cc(OC)ccc2OC)cc1	2%	2.2	-5	1	0.0
20	O=C(Nc1cc(S(=O)(=O)N2CCOCC2)ccc1N1CCCC1)c1ccc(Cl)cc1	5%	-0.2	7	-8	-1.1
21	ON=C1c2ccccc2-c2ccc(F)cc21	1%	-0.2	1	-45	-0.8
22	CC(C)(C)c1ccc(NC(=O)CON=C(N)c2ccccc2)cc1	3%	-3.4	-8	-53	5.9
23	Cn1cc(C2NC(=O)c3ccccc3N2)c2ccccc21 (configuration not stated)	-7%	2.7	14	12	10
24	O=C1C=C(C#Cc2ccccc2)C[C@@H](c2ccc(F)cc2)C1	-1%	3.3	-8	-10	-3.3

Next part.
cpd	SMILES	Vif TR-FRET	MLL AF4-AF9 inh	rRNA inh HTS	rRNA inh HTS OD600	rRNA inh HTS RFP
25	CN(C)c1ccc2nc3ccc(=O)cc-3sc2c1	-229%	66*	-24	28	34
26	N=C1c2ccccc2-c2ccccc21	-8%	0.6	11	7	-1.4
27	CC1CCN(S(=O)(=O)c2cccc(C(=O)NC3CCS(=O)(=O)C3)c2)CC1 (configuration not stated)	2%	0.4	8	13	-1.9
28	Nc1nc(N2CCOCC2)n[nH]1	-2%	0.4	6	7	-0.5
29	CC(C)(C)C1CCNC(=O)CC1 (configuration not stated)	-3%	0.3	13	18	0.0
30	CCCn1c(CCNc2nc(-c3cccc(Br)c3)cs2)nc2ccccc21	-2%	-0.4	-2	8	4.0
31	c1cnc(NCCSSCCNc2ncccn2)nc1	9%	-1.6	20	39	5.1
32	COc1ccc(S(=O)(=O)N2CCC(C(=O)N[C@@H](C)C(=O)NCc3ccco3)CC2)cc1	-2%	-2.7	2	6	-2.3

Other records
cpd	SMILES	Vif TR-FRET	MLL AF4-AF9 inh	rRNA inh HTS	rRNA inh HTS OD600	rRNA inh HTS RFP
33	C[C@@H]1CN([C@H](C)CO)C(=O)CCCn2nncc2CO[C@@H]1CN(C)S(C)(=O)=O	5%	-6.9&-0.6	4	4	-0.5
34	Nc1ccc2c(=O)[nH][nH]c(=O)c2c1	-2%	-4.9	9	5	0.0
35	CC(CC(=O)c1ccc(F)cc1)N1CCN(c2ccccc2)CC1 (configuration not stated)	13%	24	12	14	-0.8
36	COC(=O)c1ccc(NCc2c(O)ccc(O)c2Br)cc1Cl	8%	4.8	-9	3	13
37	Cc1nnc(NC(=O)CCC2CCCCC2)s1	-3%	-1.4	2	8	-1.9
38	CN(CC(=O)Nc1ccc(F)cc1)C(=O)c1cc(-c2cccs2)nn1-c1ccccc1	-37%	-2.3	5	17	3.7
39	COC(=O)c1ccc(C)c(NC(=O)CCn2[nH]c(=O)ccc2=O)c1	-10%	-0.5	5	13	-4.7
40	CCN(CC)C(=O)C1=C(C)N(Cc2ccccc2)C(=O)C(CC(=O)NC2CCCC2)C1 (configuration not stated)	5%	-1.0	9	-2	-2.4

Continued:
cpd	SMILES	Vif TR-FRET	MLL AF4-AF9 inh	rRNA inh HTS	rRNA inh HTS OD600	rRNA inh HTS RFP
41	C[C@@H]1CN([C@H](C)CO)C(=O)c2cc(NC(=O)Nc3ccc(C(F)(F)F)cc3)ccc2O[C@H]1CN(C)Cc1ccc(Cl)c(Cl)c1	5%	-1.0&1.2	4&10	-1&12	0.4&0.6
42	COc1ccc(C=C(C(=O)O)c2ccc(OC)cc2)cc1	-4%	-2.2	-3	-13	-9.1
43	O=C1COc2cc(O)ccc21	-5%	-1.0	13	13	-0.9
44	O=C(C[C@H]1C[C@H](C(=O)N2CCOCC2)[C@@]2(CCC3CCCC3)c3[nH]c4cc(-c5ccco5)ccc4c3CCN2C1=O)NCCN1CCOCC1	3%	-87	17	9	27
45	C=C(C)COC(=O)C1CC2OC2CC1C(=O)OCC(=C)C (configuration not stated)	-14%	-0.7	9	10	4.8
46	C[C@@H]1CN([C@@H](C)CO)S(=O)(=O)c2ccc(Br)cc2O[C@H]1CN(C)Cc1ccccn1	-3%	0.3&-1.7&-2.4	-36&-4	-45&-4	-8.1&-4.4
47	Cc1c(CCO)c(=O)n2n1CCCC2	-2%	1.8	11	2	0.1
48	CCOC(=O)C1=CN(Cc2cccc(F)c2)S(=O)(=O)N(C)C1c1ccc(F)c(Cl)c1 (configuration not stated)	-8%	-1.0	-9	-5	-7.8

Arranged by SMILES length (descending): some entries from above.
cpd	SMILES	Vif TR-FRET	MLL AF4-AF9 inh	rRNA inh HTS	rRNA inh HTS OD600	rRNA inh HTS RFP
44	O=C(C[C@H]1C[C@H](C(=O)N2CCOCC2)[C@@]2(CCC3CCCC3)c3[nH]c4cc(-c5ccco5)ccc4c3CCN2C1=O)NCCN1CCOCC1	3%	-87	17	9	27
41	C[C@@H]1CN([C@H](C)CO)C(=O)c2cc(NC(=O)Nc3ccc(C(F)(F)F)cc3)ccc2O[C@H]1CN(C)Cc1ccc(Cl)c(Cl)c1	5%	-1.0&1.2	4&10	-1&12	0.4&0.6
46	C[C@@H]1CN([C@@H](C)CO)S(=O)(=O)c2ccc(Br)cc2O[C@H]1CN(C)Cc1ccccn1	-3%	0.3&-1.7&-2.4	-36&-4	-45&-4	-8.1&-4.4
40	CCN(CC)C(=O)C1=C(C)N(Cc2ccccc2)C(=O)C(CC(=O)NC2CCCC2)C1 (configuration not stated)	5%	-1.0	9	-2	-2.4
45	C=C(C)COC(=O)C1CC2OC2CC1C(=O)OCC(=C)C (configuration not stated)	-14%	-0.7	9	10	4.8
42	COc1ccc(C=C(C(=O)O)c2ccc(OC)cc2)cc1	-4%	-2.2	-3	-13	-9.1

(continued)
cpd	SMILES	Vif TR-FRET	MLL AF4-AF9 inh	rRNA inh HTS	rRNA inh HTS OD600	rRNA inh HTS RFP
49	CSCC[C@H](N)C(=O)NC[C@H]1O[C@@H](n2cnc3c(N)ncnc32)[C@H](O)[C@@H]1O	-2%	0.4	14	10	-0.9
50	Cc1nn(CC(=O)NC2CC2)c(C)c1S(=O)(=O)N(C)C	47%	-2.0	1	2	-1.3
51	CCCOc1ccc(C(=O)CCN2CCN(C(=O)OCC)CC2)cc1	6%	-5.0	5	3	2.6
52	O=C(CN1C(=O)NC(c2ccccc2)(c2ccccc2)C1=O)NCc1cccs1	-3%	-0.6	-36*	-22*	-12*
53	O=C1N(Cc2ccccc2)CC2(Br)COCOC12O (configuration not stated)	-7%	-4.8	9	8	3.2
54	COc1ccc2cc(/C(C)=N/NC(=O)c3cc(C)oc3C)ccc2c1	1%	-1.7	-1	-9	0.5
55	C#CCN1Cc2ccccc2Oc2cc(Br)ccc2S1(=O)=O	-4%	1.1	-45	-64	-8.1
56	COc1ccc(C=NNC(=S)Nc2ccc(F)cc2)cc1OC	5%	-0.3	-9	7	8.1

Continued:
cpd	SMILES	Vif TR-FRET	MLL AF4-AF9 inh	rRNA inh HTS	rRNA inh HTS OD600	rRNA inh HTS RFP
57	CCN(CC)C(=O)C1=C(C)N(CCCOC)C(=O)C(CC(=O)NCCCN(C)C)C1 (configuration not stated)	3%	0.7	17	9	2.6
58	CC(C)CC1C(=O)N(Cc2cn(CC3CCCCC3)nn2)CCS(=O)(=O)N1Cc1ccc(-c2ccc(Cl)c(Cl)c2)cc1 (configuration not stated)	-3%	0.7	16	10	3.5
59	CCOC(=O)c1ccc(NC(=O)c2nc[nH]c2C(=O)N[C@@H](C)CO)cc1	2%	1.0	-1	-2	0.8
60	FC(F)(F)C1=NNC(c2ccc3ccccc3c2)=NN1	-4%	0.4	-2	-4	7.8
61	O=[N+]([O-])c1ccc2c(c1)C(=Nc1ccccc1)c1ccccc1-2	-1%	5.3	-4	22	3.1
62	CCCCCCN1C[C@H](n2cc(COC(=O)c3ccccc3)nn2)[C@@H](O)C[C@@H]1c1ccc(C)cc1	0%	-4.5	15	10	1.2
63	Cn1cnc2c(SCc3ccccc3)ncnc21	-2%	0.4	1	-3	0.8
64	CCOC(=O)c1csc(-c2csc(CCNC(=O)c3ccccc3)n2)n1	0%	-10	-1	-4	2.5

Additional results follow:
cpd	SMILES	Vif TR-FRET	MLL AF4-AF9 inh	rRNA inh HTS	rRNA inh HTS OD600	rRNA inh HTS RFP
65	O=C(COC(=O)Cn1cnc2ccccc21)Nc1ccc(Br)cc1	-6%	-6.5	-8	2	7.6
66	COc1cc(NC(=O)CCNC(=O)N2CC(=O)Nc3ccccc32)cc(OC)c1OC	1%	1.7	14	14	-1.6
67	O=C(c1ccccc1F)N1CCCC(N2CCN(Cc3ccc4c(c3)OCO4)CC2)C1 (configuration not stated)	-8%	1.5	8	8	1.2
68	CCCn1c(SCC(=O)Nc2ccccc2Cl)nc(O)cc1=O	4%	-0.6	6	6	-0.6
69	CCn1c(=O)c2[nH]c(Cl)nc2n(CC)c1=O	-2%	0.7	6	5	1.1
70	CC[C@]1(C(=O)OC)[C@H]2C(=O)N(C)C(=O)[C@H]2[C@H]2CN=C(SCc3ccccc3)N21	-3%	-11	26	12	6.3
71	O=C(C1CCCCC1C(=O)N1CCCCC1)N1CCCCC1 (configuration not stated)	-7%	-2.4	5	9	-1.8
72	COc1ccc(OC)c2nc3c(C(=O)NCCN(C)C)cccc3nc12	-6%	-1.3	-6	-40	-6.1

Bioassay records: PubChem, several laboratories
